Screens deposited in PubChem BioAssay by several laboratories.
CSC inhib – cancer stem cell inhibition | cancer stem cell-like cells viability, luminescence | inhibition, % at 7.5 µM | 300,000 tested, 1.1% active | AID 2717;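 active = mean at 75% or more and at least half the replicates too; inconclusive = mean and replicates disagree; tested in HMLE shEcad cells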;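 also: 0% = median of negative and 100% = median of positive control wells; the first replicate is given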
UUG fidelity – alters start codon recognition fidelity in yeast. activity score, % at 18.7 µM. S. cerevisiae UUG-firefly luciferase reporter, luminescence/redox ratio. 350,000 tested, 0.13% active;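 active = replicate mean at a twofold rise or more, about +100% in these data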;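 also: firefly luciferase made from a UUG start codon reports start codon fidelity; reporter light over untreated wells divided by growth signal over untreated wells; some hits fall short of that in this replicate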
PABP FP inh – blocks human PABP binding to poly(A) RNA. P11940. fluorescence polarization. inhibition, % at 35 µM. 290,000 tested, 1% active;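 active = 50% or more with normal probe brightness, or confirmed in later tests; inconclusive = above 50% with abnormal brightness, or retests that disagree; inactive = below 50% or failed in later tests; about a fifth of its hits are not listed in these tables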;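 also: calls also rest on retests at 20 µM and on dose response follow-up; controls were probe without protein and protein plus probe with vehicle; some compounds called inactive have numbers as strong as hits; many hits fall short of the cut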
HIV Env fusion – inhibitors of HIV Env-mediated cell fusion | 360,000 tested, 1.1% active | AID 651610 | HeLa-JRFL Env/CEM21 cell fusion, luciferase | inhibition, % at 12.3 µM;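 active = mean replicate inhibition score of at least 50 and every replicate individually at or above 50; inconclusive = only one of the two criteria met; inactive = mean below 50 and not all replicates reaching 50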;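 also: 0% = plate neutral controls and 100% = maraviroc near 300 nM; one replicate is shown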
Rce1 inhib – yeast Ras-converting enzyme inhibition; calls only; 290,000 tested, 0.27% active; AID 2563; yeast membranes, quenched prenylated peptide cleavage fluorescence; Q03530;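 active = fall in fluorescence gain of 50% or more versus controls, with final raw signal at or below 3038400; inconclusive = same 50% fall but final raw signal above 3038400; inactive = fall in fluorescence gain under 50%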;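 also: plate controls were neutral control wells for no effect and wells lacking membranes for full effect; tested at 10 µM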
Target sequence (Q03530 whole entry, looked up): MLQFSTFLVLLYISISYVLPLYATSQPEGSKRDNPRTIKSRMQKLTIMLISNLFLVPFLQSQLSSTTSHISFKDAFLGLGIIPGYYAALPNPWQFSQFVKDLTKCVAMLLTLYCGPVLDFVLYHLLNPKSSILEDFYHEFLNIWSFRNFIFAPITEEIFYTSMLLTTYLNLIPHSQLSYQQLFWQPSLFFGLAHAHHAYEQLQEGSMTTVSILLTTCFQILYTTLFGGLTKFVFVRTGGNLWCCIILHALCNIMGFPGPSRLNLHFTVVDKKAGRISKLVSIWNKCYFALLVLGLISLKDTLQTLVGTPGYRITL
eIF4H FP inh – inhibitors of RNA binding by human eIF4H | Q15056 | eIF4H fluorescence polarization binding assay | inhibition, % at 35 µM | 290,000 tested, 0.94% active | AID 2012;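 active = 50% or more with normal probe brightness, or confirmed in later tests; inconclusive = above 50% with abnormal brightness, or retests that disagree; inactive = below 50% or failed in later tests; about a fifth of its hits are not listed in these tables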;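 also: calls also rest on retests at 20 µM and on dose response follow-up; 0% = protein and probe with vehicle and 100% = probe without protein; strong numbers were not always called active; many hits fall short of the cut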
MT1-MMP act inh – MT1-MMP (human) activation inhibition. GFP/RFP ratio change, % at 20 µM. HT1080 RFP-PRO-GFP cells, GFP/RFP ratio fluorescence, overnight; percent of plate control window, DMSO zero. AID 651647. P50281. 360,000 tested, 0.061% active;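 active = GFP/RFP ratio change of at least 30% with cell ATP level not reduced by more than half and red fluorescence within 50% of control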; also: strong numbers were not always called active
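Material: RFP-PRO-GFP reporter HT1080 cells. Dosing: single-point 20 µM compound, 1% DMSO. Controls: DMSO and RFP-L50D-GFP cell wells. Timing: cells overnight before dosing, compound overnight, 37 °C, 5% CO2. Measure: GFP/RFP fluorescence ratio.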
MT1-MMP act inh RFP – second read-out of MT1-MMP act inh, no call of its own (marks repeat the call); RFP signal change, %; measured here: RFP expression control read;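 0 = vehicle wells; hits needed this value within 50% of zero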
An asterisk follows results filed as active; i = inactive; ? = inconclusive; . = not tested or not shown.

SMILES	CSC inhib	UUG fidelity	PABP FP inh	HIV Env fusion	Rce1 inhib	eIF4H FP inh	MT1-MMP act inh	MT1-MMP act inh RFP
O=C(C/C=N/OCc1ccc(F)cc1Cl)c1cnc(-c2ccccc2)s1	.	-21.0	1.3	.	i	10.3	-2.0	6.3
COc1ccc(CN2C(=NC(=O)C3CCCCC3)SC3CS(=O)(=O)CC32)cc1 (stereo not given)	1.3	-15.0	-15.2	-1.4	i	1.8	2.8	0.1
C=CCNC(=O)NC(=O)CN1C(=O)NC(c2ccccc2)(c2ccccc2)C1=O	-10.3	-13.5	3.3	-20.5	i	-0.1	-0.7	2.1
O=c1c(O)c(-c2cccs2)oc2ccc(Cl)cc12	61.0	-10.3	?	.	i	?	-281.9	5.0
O=C(CS(=O)(=O)c1cn(CC(=O)N2CCOCC2)c2ccccc12)NCc1ccc(F)cc1	-8.8	6.0	8.3	0.3	i	2.5	3.5	7.2
CC(C)NC(=O)Cn1cc(C(=O)C(=O)N2CCOCC2)c2ccccc21	0.7	-3.2	-4.0	.	i	2.4	1.2	3.1
CCNC(=O)C1(C)CCN(Cc2ccc(C#N)cc2)C1 (stereo not given)	.	-32.6	.	20.3	.	.	-0.8	2.5
CC(C)=CCN1CCN(Cc2cnc(N3CCCC3)s2)CC1CCO (stereo not given)	.	.	-0.6	-6.9	i	-1.4	0.0	1.0
COc1ccc(-n2c(O)c(/C=N/Nc3nc(C)cc(C)n3)c3ccccc3c2=O)cc1OC	3.7	-35.9	2.6	8.3	i	12.6	-0.3	-0.1
Cc1ccc(C(=O)N[C@H](C(=O)N2CCN(c3ncccn3)CC2)C(C)C)cc1	.	-7.6	.	-62.0	.	.	-0.8	0.5
COc1ccc(C(=O)NCCCCCCNC(=O)c2ccc(OC)cc2)cc1	-14.4	-20.4	-7.3	9.6	i	-4.6	-3.9	-1.8
O=C(Nn1c(=O)[nH]c2ccsc2c1=O)c1ccccc1	1.4	-19.3	-4.1	-45.8	i	-5.9	-5.7	3.7
C=CCNc1ncnc2c1[nH]c1ccc(Cl)cc12	35.0	-9.9	1.7	32.4	i	-3.9	12.7	-17.4
Cc1ccc(CN2CCN(C(=O)CCN3C(=O)c4ccccc4C3=O)CC2)cc1	-6.4	-41.2	-1.0	.	i	-0.2	3.2	2.3
CCN1C(=NCCCOC(C)C)N[C@@H](CCc2ccccc2)[C@H](C(=O)NCCCOC(C)C)[C@H]1C	16.5	-10.2	.	13.1	.	.	-15.5	-16.7
COc1cc(/C=N/NC(=O)c2ccncc2)ccc1OCC(=O)Nc1ccc(C)c(C)c1	-15.7	6.5	5.4	-0.8	i	-5.4	-2.4	0.8
Cc1cc(C)c(NC(=O)c2sc3nc4c(cc3c2N)C(=O)CC(C)(C)C4)c(C)c1	-12.6	.	-2.0	4.6	i	0.2	1.2	-5.7
COc1cc(C(=O)NC2CC(C)CC(C)(C)C2)cc(OC)c1OC (stereo not given)	.	-3.3	.	-4.5	.	.	4.4	-6.5
Fc1ccc(COc2cccc3cccnc23)cc1	3.8	.	-1.8	-14.9	i	-1.8	2.3	3.7
Cc1ccc(-c2nn(-c3ccccc3)cc2C(=O)N2CCN(C3CCS(=O)(=O)C3)CC2)cc1 (stereo not given)	7.2	-5.1	.	-5.3	.	.	-2.0	2.0
COCCN1C(=O)C(CC(=O)Nc2ccc(C(=O)O)cc2)SC1=Nc1ccccc1 (stereo not given)	-8.0	.	3.8	.	i	0.0	0.5	2.5
NNC(=O)c1cc2c(N3CCC(Cc4ccccc4)CC3)ncnc2s1	17.5	.	-13.1	-6.6	i	-11.2	-5.4	-19.0
C#CCO[C@@H]1C[C@H](n2cnc3c(=O)[nH]c(NC(=O)C(C)C)nc32)O[C@@H]1CO	-12.0	10.4	-1.5	-16.2	i	6.2	-6.5	3.9
CCN(CC)CCCNC(=O)c1ccc(OCC(=O)Nc2ccccc2C(F)(F)F)c(OC)c1	-14.3	12.8	2.1	11.3	i	-5.3	-5.6	-3.7
CCOc1ccc(C(=O)NCC(=O)N2CCCC2)cc1	-13.3	0.7	2.0	-11.9	i	-12.0	2.5	3.0

The listing continues.
SMILES	CSC inhib	UUG fidelity	PABP FP inh	HIV Env fusion	Rce1 inhib	eIF4H FP inh	MT1-MMP act inh	MT1-MMP act inh RFP
O=C(NC(NC(=S)Nc1ccc(Cl)cc1Cl)C(Cl)(Cl)Cl)c1cccc([N+](=O)[O-])c1 (stereo not given)	128.0*	.	0.6	-9.3	i	-5.6	-3.6	-5.9
COc1ccc(C(=O)NC2CCN(CC(=O)NCc3cccc(OC)c3)CC2)cc1	-1.1	-13.6	11.0	3.6	i	1.9	1.9	3.4
CCOc1ccc(CN(C)C(=O)NNC(=O)c2ccc(C)cc2)cc1OC	-10.9	-10.3	-5.3	-3.7	.	-8.4	2.0	0.3
O=[N+]([O-])c1ccc(S(=O)(=O)N2CCSC2c2ccco2)cc1 (stereo not given)	1.5	-13.6	2.8	-1.1	i	14.0	-0.6	-1.8
O=C(O)C1CCCCC1C(=O)Nc1cccc2ccccc12 (stereo not given)	-9.2	-5.4	-9.7	-27.4	i	3.3	-3.8	-3.0
CCN(Cc1cnn(C)c1)C(=O)C1CCC(=O)N(CCc2ccc(OC)cc2)C1 (stereo not given)	-3.2	-2.5	-10.6	16.6	i	-4.2	0.5	4.4
Cc1ccc2oc(-c3ccc(NC(=O)c4cccnc4)cc3)nc2c1	.	.	-4.3	.	i	4.7	10.5	-7.6
CC(C)c1ccc(NC(=S)N2CCN(C)CC2)cc1	-14.2	-25.3	-10.5	2.9	i	-3.0	.	.
CCN(CC)C(=O)[C@H]1CC(CC(=O)NCCc2ccccn2)C(=O)N2CCc3c([nH]c4ccc(OC)cc34)[C@]12C (stereo not given in full)	.	-20.8	.	-6.3	.	.	1.9	1.8
Cc1ccc(C(=O)NCC(=O)N2CCN(S(=O)(=O)c3cccs3)CC2)s1	-1.1	2.2	18.8	-5.4	i	17.2	-1.4	2.1
CCC(c1nnnn1Cc1ccccc1)N(Cc1ccco1)Cc1cc2cc(OC)ccc2[nH]c1=O (stereo not given)	-3.7	-1.2	7.8	.	i	6.4	-0.5	2.2
O=C(Cn1ncc2c([nH]c3ccccc32)c1=O)N1CCN(c2ccccn2)CC1	0.3	.	-3.4	-7.3	i	-2.5	-2.6	-2.4
O=C(Nc1ncc(Cc2cccc(Cl)c2)s1)C1CCCO1 (stereo not given)	19.3	-3.8	-1.8	.	i	-8.4	9.5	0.7
CCN(CC)S(=O)(=O)c1ccc(Cl)c(C(=O)Nc2nncs2)c1	.	0.3	-4.1	.	i	-5.5	-0.4	2.2
Cc1nc2c3cc(F)ccc3n(Cc3ccccc3)c2s1	118.4*	-2.5	-10.2	-7.3	i	-0.3	0.5	-8.3
COc1cc(/C=N/NC(=O)CC23CC4CC(CC(C4)C2)C3)cc(Br)c1OCC(=O)N(C)C	0.3	.	-3.5	-0.5	i	6.0	3.7	-6.9
CC(C)[C@H](NC(=O)c1ccc(C(C)(C)C)cc1)C(=O)Nc1nnc(C2CC2)s1	4.8	-7.6	-13.4	40.1	i	-4.4	-13.5	-14.6
CN(Cc1ccccc1)C(=O)c1ncn(C)c1C(=O)N(C)Cc1ccccc1	10.8	-12.2	.	-2.3	.	.	-2.6	-1.6
CCOC(=O)C1CCCN(C(=O)c2cc(F)ccc2C)CC1 (stereo not given)	.	-11.5	.	-40.8	.	.	-1.2	-1.8
CCN(CC(=O)Nc1c(F)cccc1F)C(=O)C1CC1C (stereo not given)	-11.6	-4.7	.	.	i	.	3.0	5.0
CCc1ccccc1NC(=S)N(CCN1CCCCC1)Cc1ccco1	-6.8	.	-2.7	-8.2	i	-5.8	-1.9	-2.1
OC(Cn1cncn1)c1ccc(Cl)cc1 (stereo not given)	-9.6	-7.6	-3.5	0.9	i	-4.4	4.2	6.1
Cc1ccc(NC(=O)c2ccc(S(=O)(=O)NCc3cccnc3)cc2)c(C)c1	1.1	-10.6	5.9	3.2	i	1.5	.	.
Nc1cc(=O)nc(SCC(=O)N(C2CCCCC2)C2CCCCC2)n1-c1ccccc1	-1.2	-6.8	-5.4	.	i	1.3	-2.2	-2.1
CCCCN(C)C1CCN(C(=S)Nc2ccc(OC)cc2)CC1	-4.1	.	-0.4	-4.5	i	-2.2	1.8	4.7

Other entries.
SMILES	CSC inhib	UUG fidelity	PABP FP inh	HIV Env fusion	Rce1 inhib	eIF4H FP inh	MT1-MMP act inh	MT1-MMP act inh RFP
Cc1ccc2ncccc2c1[N+](=O)[O-]	-6.5	.	0.5	-15.4	i	-4.9	-1.0	9.5
Cc1cccc(NC(=O)Cn2nc(C(F)(F)F)cc2C2CC2)c1	.	.	4.9	.	i	1.4	2.7	-0.4
CCOc1ccc(CNc2nnnn2C)cc1OC	3.8	-6.2	-20.9	2.2	i	-7.9	-0.9	0.1
O=C(CN1CCN(Cc2ccccc2F)C1=O)NCc1ccco1	-13.1	-1.7	-0.9	-121.8	i	0.1	-2.0	-1.6
Cc1cnc(NC(=O)c2ccc(OCC3CCCO3)cc2)s1 (stereo not given)	15.8	-74.6	0.3	-1.9	i	-0.2	0.0	-4.2
O=C(c1ccco1)N1CCCN(C(=O)c2ccco2)CC1	.	.	-6.5	-67.4	i	-11.1	-2.3	-4.7
O=c1[nH]c(SCc2ccc([N+](=O)[O-])cc2)nc2[nH]ncc12	3.4	-12.4	-0.5	-29.0	i	-0.3	0.6	2.0
COCCNC(=O)C1(C)CCN(C(=O)c2ccc3sccc3c2)C1 (stereo not given)	.	-15.8	.	5.9	.	.	-6.1	1.0
CCCCCOc1ccc(/C=C/c2c([N+](=O)[O-])c(=O)n(C)c(=O)n2C)cc1	31.9	-4.0	-2.7	2.8	i	-4.0	-2.2	-11.1
O=C(CC1C[C@H](C(=O)N2CCOCC2)[C@@]2(CCC3CCCC3)c3[nH]c4ccccc4c3CCN2C1=O)NCc1cccc(C(F)(F)F)c1 (stereo not given in full)	.	-4.4	.	16.4	.	.	-21.5	-19.9
O=C(OCc1cc(=O)n2ccsc2n1)C1(c2ccccc2)CC1	.	-8.1	.	-36.0	.	.	0.9	2.1
CCOC(=O)c1ccc(NCc2ccc3c(c2)OCO3)cc1	-7.7	-14.2	-8.4	-249.2	i	-8.0	-3.0	-1.8
O=C(O)C(CO)N=Cc1c(O)c2ccccc2oc1=O (stereo not given)	-12.5	.	3.2	17.3	i	-2.8	-8.9	5.6
Cc1ccc(C(=O)COC(=O)CCC(=O)NC2CCCCC2)cc1[N+](=O)[O-]	0.1	.	1.4	-16.3	i	-3.9	1.2	4.8
CCCCCn1c(=N)c(S(=O)(=O)c2ccc(Cl)cc2)cc2c(=O)n3cccc(C)c3nc21	-2.6	-15.1	-1.8	.	i	-7.2	2.6	-10.1
CC(=O)c1ccc(N2CCN(C(=O)C3CCCN3S(=O)(=O)c3cccc4nsnc34)CC2)cc1 (stereo not given)	-6.0	-8.4	12.8	-17.3	i	-2.5	-1.4	-0.8

Arranged by length of the SMILES (descending): 3 of the compounds above
SMILES	CSC inhib	UUG fidelity	PABP FP inh	HIV Env fusion	Rce1 inhib	eIF4H FP inh	MT1-MMP act inh	MT1-MMP act inh RFP
O=C(CC1C[C@H](C(=O)N2CCOCC2)[C@@]2(CCC3CCCC3)c3[nH]c4ccccc4c3CCN2C1=O)NCc1cccc(C(F)(F)F)c1 (stereo not given in full)	.	-4.4	.	16.4	.	.	-21.5	-19.9
Cc1ccc(C(=O)COC(=O)CCC(=O)NC2CCCCC2)cc1[N+](=O)[O-]	0.1	.	1.4	-16.3	i	-3.9	1.2	4.8
Cc1cnc(NC(=O)c2ccc(OCC3CCCO3)cc2)s1 (stereo not given)	15.8	-74.6	0.3	-1.9	i	-0.2	0.0	-4.2
